Source: PubChem
POLK inh = inhibitors of human DNA polymerase kappa; Q9UBT6; 400,000 compounds, 0.53% hits; Potency, µM (titrated, usually from 107 µM), for inactives: at the top dose activity, negative = inhibition, actives largely listed as inhibitors; purified Pol kappa, fluorescent DNA synthesis assay, 10 min; AID 588579; note: % is set by controls: 0 for no effect and ±100 for the full control effect
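10 nM Pol kappa was preincubated with compounds for 15 min at room temperature. Reaction started with 50 nM (final) substrate. Fluorescence read kinetically at 0 and 10 min.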
Pol beta inh = blocks human DNA polymerase beta activity. P06746. Pol beta primer extension/strand displacement, fluorescence kinetic. Potency, µM (doses to about 114 µM), inactives show top-dose activity change, negative = inhibition, usual class: inhibitors. 340,000 compounds, 1.3% hits. AID 485314; note: % is set by controls: 0 for no effect and ±100 for the full control effect
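Enzyme-only controls used 10 nM Pol beta; buffer lacking enzyme served as negative control. Compound preincubated 15 min, then 50 nM substrate added; 0 and 10 min reads at room temperature.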
Apoferritin bind = binds horse apoferritin like a general anesthetic; 350,000 compounds, 0.074% hits; apoferritin/1-aminoanthracene competitive binding, fluorescence; Potency, µM (doses to about 77.5 µM), inactives show top-dose activity change, negative = displacement, usual class: inhibitors; AID 485281; note: % is set by controls: 0 for no effect and ±100 for the full control effect; nearly all actives have a fitted effect of over 20% in size
Target sequence (P02791 2-175 limits assumed): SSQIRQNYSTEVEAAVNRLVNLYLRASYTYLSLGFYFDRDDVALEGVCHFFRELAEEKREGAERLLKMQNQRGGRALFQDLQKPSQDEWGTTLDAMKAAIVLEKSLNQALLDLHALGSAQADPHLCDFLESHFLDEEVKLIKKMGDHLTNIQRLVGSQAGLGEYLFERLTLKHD
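Steps: apoferritin (10 uM) was premixed with half-saturated 1-AMA in PBS, compounds were pin-transferred, plates stood 10 min at room temperature, fluorescence was read at 380/535 nm, and curves were fitted with a Hill equation.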
APE1 inh = APE1 (human) endonuclease inhibition. 350,000 compounds, 0.35% hits. Potency, µM (top dose mostly 65.8 µM), for inactives: at the highest dose activity change, negative = inhibition, actives largely listed as inhibitors. recombinant APE1, TAMRA/BHQ-2 abasic DNA cleavage fluorescence. P27695;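 note: plate controls were vehicle for no effect and reference inhibitor for full effect; nearly all actives have a fitted effect of over 55% in size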
Target sequence (P27695 whole entry, looked up): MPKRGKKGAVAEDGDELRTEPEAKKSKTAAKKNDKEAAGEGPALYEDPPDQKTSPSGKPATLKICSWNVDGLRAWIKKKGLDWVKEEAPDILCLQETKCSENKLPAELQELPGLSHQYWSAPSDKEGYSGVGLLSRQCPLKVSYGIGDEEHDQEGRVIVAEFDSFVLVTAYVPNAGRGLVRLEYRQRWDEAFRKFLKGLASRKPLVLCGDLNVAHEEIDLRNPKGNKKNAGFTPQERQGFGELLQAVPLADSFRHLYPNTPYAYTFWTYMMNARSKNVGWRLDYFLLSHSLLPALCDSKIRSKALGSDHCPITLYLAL
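Measures dequenching upon AP-site incision of a 5'-TAMRA/3'-BHQ-2 THF-containing duplex, 50 nM; human APE1 0.75 nM after 15 min room-temperature exposure to compound; kinetic three-point read at one-minute spacing.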
G9a inh = G9a (human) methyltransferase inhibition; 350,000 compounds, 8.8% hits; Q96KQ7; Potency, µM (highest dose often 102 µM), for the others: at the highest dose activity, negative = inhibition, hits mostly inhibitors; AID 504332; G9a H3K9 monomethylation, AlphaScreen, 2 h; note: % is set by controls: 0 for no effect and ±100 for the full control effect; nearly all actives have a fitted effect of over 75% in size
Target sequence (Q96KQ7 913-1193 limits assumed): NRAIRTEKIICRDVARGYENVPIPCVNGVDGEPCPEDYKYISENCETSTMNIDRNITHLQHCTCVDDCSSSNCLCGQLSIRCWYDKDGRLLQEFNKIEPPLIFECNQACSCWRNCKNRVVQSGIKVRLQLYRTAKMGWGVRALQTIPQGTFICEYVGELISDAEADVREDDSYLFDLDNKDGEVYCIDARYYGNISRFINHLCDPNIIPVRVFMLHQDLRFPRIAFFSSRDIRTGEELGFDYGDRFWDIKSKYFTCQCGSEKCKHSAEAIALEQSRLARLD
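G9a (20 nM) was preincubated 15 min with compound, then reacted 2 h at room temperature with 500 nM biotin-H3K9 peptide and 20 µM SAM. Monomethyl-H3K9 detected by AlphaScreen using anti-H3K9me1 antibody.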
Pol eta inh = blocks human DNA polymerase eta activity. Q9Y253. recombinant Pol eta, fluorescent DNA replication assay. Potency, µM (series often up to 114 µM), for inactives: at the highest dose activity change, negative = inhibition, usual class: inhibitors. 390,000 compounds, 1.2% hits; note: % is set by controls: 0 for no effect and ±100 for the full control effect
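Fluorescent replication assay: 50 nM final substrate added after a 15 min room-temperature compound preincubation with 10 nM enzyme. Signal taken at 0 min and again at 10 min.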
BLM inh = inhibitors of human Bloom syndrome helicase BLM. P54132. Potency, µM (doses to about 56.1 µM), for the others: top-dose activity change, negative = inhibition, actives largely listed as inhibitors. 350,000 compounds, 0.2% hits. recombinant BLM DNA unwinding, fluorescence dequenching;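 note: plate controls were vehicle for no effect and no enzyme for full effect; nearly all actives have a fitted effect of over 35% in size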
Pol iota inh = blocks human DNA polymerase iota activity; Q9UNA4; Pol iota fluorescent replication assay, 10 min; Potency, µM (series often up to 115 µM), without a hit: at the top dose activity, negative = inhibition, most hits filed as inhibitors; 390,000 compounds, 1% hits; AID 588590
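Fluorescent replication assay read twice, at 0 min and 10 min after adding 50 nM (final) substrate. Enzyme (10 nM) and compounds were first incubated 15 min at room temperature; enzyme-free buffer wells were negative controls.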
* = called active by the depositor; ? = inconclusive; · = no result given; [ ] = dose if it differs, or a comment. Calls come from the whole dose curve; as a rule, active = well fitted curve in the direction sought with a large enough effect; inconclusive = small, poorly fitted or top-dose-only effect, or another doubt; inactive = no such curve, though single readings can be large; an effect the other way counts as inactive or inconclusive. Potency is the fitted concentration of half-maximal effect.

Order of results – POLK inh | Pol beta inh | Apoferritin bind | APE1 inh | G9a inh | Pol eta inh | BLM inh | Pol iota inh
- O=C(/C=C/c1ccco1)OCC(=O)c1cccc([N+](=O)[O-])c1
  -12% | ? | -16% | 8%[12.4 µM] | ? | -8% | -4% | ?
- COc1ccc(C2NC(=O)NC(C)=C2C(=O)Nc2cc(C)cc(C)c2)c(OC)c1 (stereo unspecified)
  0% | 1% | -7% | · | -1%[59 µM] | -17% | -6% | 12%
- CCc1nc(C)ccc1OCC(=O)NCCCN(C)C
  4% | 0% | -4% | 3% | 3.2µM* | -7% | 1% | ?
- COc1ccccc1Nc1nc(N)nc(CN2CCC(Cc3ccccc3)CC2)n1
  -12% | ? | -19% | 2% | -26%[12.7 µM] | -10% | 1% | 5%
- O=C(CN1CCN(c2cccc(C(F)(F)F)c2)CC1)Nc1cccc(C(F)(F)F)c1
  -8% | 6% | -3% | -3% | ? | -10% | -15% | 4%
- N#Cc1cccc(Nc2ncnc3c2cnn3-c2cccc(Cl)c2)c1
  -2%[60.1 µM] | 1% | -8% | · | 3%[59 µM] | -12% | -6% | -7%
- Cc1cc(C)n(C(=O)Cc2cn3ccsc3n2)n1
  5% | -17% | -6% | -5% | ? | -10% | 0% | ?
- Cc1cccc(N2CCN(C(=O)c3cn(C)c(=O)c4c3c3ccccc3n4C)CC2)c1C
  -19% | 6% | -8% | -7% | 50µM* | -23% | -10% | -11%
- Cc1ccc(-c2csc3nc4cc(C(=O)NC5CCC(O)CC5)ccc4c(=O)n23)cc1 (stereo unspecified)
  -15% | 6% | 3% | 4% | 0.63µM* | 4% | -1% | ?
- COc1cccc(-n2ccnc2SCC(=O)Nc2cccc3ccccc23)c1
  -7%[60.1 µM] | 1% | 39%[activator] | · | ? | -9% | -11% | -3%
- COCCNC(=O)C(=O)NNC(=O)c1ccccc1OC
  -10% | 18% | -4% | 4% | -11% | 6% | 4% | -5%
- Cc1ccc(-n2cc(-c3ccc([N+](=O)[O-])cc3)[nH]c2=S)c(C)c1
  -2% | 9% | -6% | ? | ? | -26% | -5% | -8%
- CCOC(=O)c1c(C)sc(Sc2ccc(Cl)cc2[N+](=O)[O-])c1OC
  -12% | 30% | -23% | 13% | ? | -5% | -9% | 9%
- O=S(=O)(Nc1cccc(-c2cn3c(n2)SCC3)c1)c1ccccc1
  -4% | ? | -6% | 22% | · | -21% | -2% | 13%
- COc1cccc(-c2ocnc2C(=O)Nc2ccc(N3CCOCC3)cc2N2CCOCC2)c1
  2% | -3% | -10% | -14% | 35µM* | -18% | -9% | 26%
- COc1ccc(SCCC(=O)NCc2ccncc2)cc1
  -16% | 0% | -1% | 14% | · | -16% | 0% | 151%[activator]
- Oc1c(C(c2ccccc2)N2CCN(c3cccc(Cl)c3)CC2)sc2nc(-c3ccco3)nn12 (stereo unspecified)
  -8%[60.1 µM] | 2% | -15% | · | ? | -9% | -5% | -24%
- Cc1csc(NC(=O)CSc2nnc(-c3ccccn3)n2-c2ccc(C)c(C)c2)n1
  0% | 1% | -23% | 14% | -4%[59 µM] | -10% | -3% | 42%[activator]
- Brc1c(-c2ccccc2)nc2n1Cc1ccccc1-2
  -15% | 7% | -15% | 11% | -45%[12.7 µM] | -18% | 0% | -23%[58.9 µM]
- COc1ccc(S(=O)(=O)N2CCN(Cc3ccco3)CC2)cc1
  2% | -6% | 0% | 88%[activator] | 11µM* | -15% | -9% | 31%[activator]
- CCN1CCN(C(C)C(=O)NC2CCCCC2)CC1 (stereo unspecified)
  5% | 13% | -10% | -7% | -141%[59 µM] | 7% | -1% | 10%
- FC(F)(F)Oc1ccc2c(c1)NC(c1ccncc1)=NC(c1cccs1)=N2
  -24% | -10% | ? | · | ? | -17% | -15% | -14%
- CCc1ccccc1NC(=O)CSc1nncn2c1cc1oc(C)cc12
  -19% | 17% | -10% | · | -49%[59 µM] | -8% | -2% | 8%
- O=C(c1ccccc1)N1CCN(Cc2ccccc2C(F)(F)F)CC1
  0% | 0% | -7% | 0% | ? | -16% | -3% | 164%[activator]
- Cc1ccc(OC(=O)c2ccc(N3CCOCC3)c([N+](=O)[O-])c2)cc1
  -7% | -15% | ? | -1% | ? | -9% | -6% | 10%
- CC(C)Cc1c(O)nc(SCCN2CCOCC2)[nH]c1=O
  -1% | 1% | 10% | 2% | 2% | -18% | 2% | 14%
- Cc1cc(SCc2cccc([N+](=O)[O-])c2)nc(=O)[nH]1
  -23% | ? | -16% | -4% | 9%[0.501 µM] | 4% | -9% | ?
- C/C(=N/NC(=O)c1ccccn1)c1ccco1
  -1% | 22% | -8% | -1% | ? | -5% | -2% | ?
- COc1ccc(C(CNc2ccc(S(=O)(=O)N3CCCC3)cc2[N+](=O)[O-])N2CCCC2)cc1 (stereo unspecified)
  -3% | 4% | ? | 1% | ? | -13% | -7% | 17%
- CCCCn1cnc2sc(-c3ccccc3)cc2c1=O
  -11% | 2% | -7% | -3% | 149%[activator][59 µM] | -16% | 1% | -4%

Continuation.
Order of results – POLK inh | Pol beta inh | Apoferritin bind | APE1 inh | G9a inh | Pol eta inh | BLM inh | Pol iota inh
- O=[N+]([O-])c1ccc(CNC2CCCc3ccccc32)cc1 (stereo unspecified)
  3% | -11% | ? | 17% | · | -4% | -3% | 36%
- O=[N+]([O-])c1ccc(N2CCOCC2)cc1N1CCCCC1
  11% | 11% | -17% | 2% | -41% | -9% | -1% | -9%
- O=C(CSc1ccc2nnc(-c3ccccn3)n2n1)N1CCN(c2ccccc2)CC1
  9% | 1% | -21% | 15% | 50µM* | -5% | -7% | 17%
- CCCc1nc2ccccc2c(NC(=O)CN(CC)CC)c1CC
  8% | -4% | -4% | 16% | 50µM* | -7% | -3% | 44%[activator]
- O=C(COc1ccccc1)Nc1nnc(-c2ccc(Cl)cc2)o1
  -8% | ? | -4% | 9% | -5% | -7% | -10% | -1%
- COc1nccnc1NS(=O)(=O)c1ccc(N=Cc2c(C)[nH]n(-c3ccc(Cl)cc3)c2=O)cc1
  · | -23% | -12% | 1% | 25µM* | · | 5% | ·
- O=C(COc1ccc([N+](=O)[O-])cc1)NNC(=O)c1cccnc1
  -18% | 9% | -5% | -8% | 0% | -3% | 0% | 3%
- Cc1cc(C)cc(NC(=O)CSc2nccn2Cc2ccco2)c1
  -7% | -2% | ? | 14% | -45% | -18% | -2% | 6%
- CC(C)CNC(=S)NC(=O)c1ccc([N+](=O)[O-])cc1
  -6% | 11% | ? | -1% | · | -21% | -5% | -5%
- CCOc1cccc(NC(=O)CSc2ncc(-c3ccccc3)[nH]2)c1
  -4% | 0% | -16% | · | 10µM* | -13% | -6% | 5%
- Cc1cc(NC(=O)CSc2ccc3nnc(-c4ccccn4)n3n2)no1
  -21% | 5% | 8% | -8% | -14% | 5% | -14% | 52%[activator]
- COCCn1c(C)cc(C(=O)COC(=O)c2ccc3c(c2)NC(=O)CS3)c1C
  -11% | 9% | -20% | 17% | 40µM* | ? | -5% | -3%
- O=C(CSc1nccn1Cc1ccccc1)NCc1ccccc1Cl
  2%[60.1 µM] | 0% | ? | · | -21%[59 µM] | -8% | -4% | -8%
- COc1ccc(-c2nc3cnccn3c2Nc2ccc3c(c2)OCO3)cc1
  0% | -2% | -7% | 0% | 45µM* | -12% | -6% | -12%
- COc1ccc(C(=O)N2CCN(Cc3ccc4c(c3)OCO4)CC2)cc1OC
  -5% | -3% | 0% | 20% | 8.9µM* | -7% | -7% | 5%
- CCOC(=O)c1c(N2CCN(c3ccccc3)CC2)cc(C)nc1C
  -9% | -27% | 3% | 14% | 22µM* | -12% | 1% | -9%
- CN(C)c1cccc(C(=O)N(Cc2ccccc2)Cc2ccccc2)c1
  -4% | 28% | -1% | 6% | ? | -18% | -10% | 28%
- Cc1ccc(NC(=S)N(C)Cc2cn(C)c3ccccc23)cc1
  -10% | -2% | -6% | -3% | -1%[59 µM] | -23% | -2% | 2%
- COc1ccc(C(=O)NC(=S)NNC(=O)c2cnccn2)cc1OC
  1% | 30% | -4% | 6% | 20µM* | -17% | 4% | 21%
- Cc1nc2cc(F)ccc2n1C1CCN(C(=O)c2c(F)cccc2F)CC1
  6% | -2% | -4% | -1% | 5% | -20% | -2% | 11%
- CCCN(CCC)CCSc1nc(O)c(C(C)C)c(=O)[nH]1
  -10% | 26% | -5% | 1% | ? | -20% | 2% | 16%
- COc1ccc(-c2nc(C#N)c(N3CCCCCC3)o2)cc1OC
  -8% | 5% | -10% | ? | ? | -18% | -5% | -8%
- CCOC(=O)N1CCC(=NNc2ccnc3cc(Cl)ccc23)CC1
  -4% | 14% | -5% | 12% | 35µM* | -18% | 0% | 78%[activator]
- COc1ccccc1Nc1nc(N)nc(CN2CCN(c3ccccc3F)CC2)n1
  -5% | 1% | -11% | 3% | ? | 1% | -4% | 7%
- CC(C)c1ccc(CN2CCC(C(=O)NCc3cccnc3)CC2)cc1
  4% | -2% | -11% | 3% | 32µM* | 14% | 0% | ?

Gathered by group: the entries above with a Cl atom.
Order of results – POLK inh | Pol beta inh | Apoferritin bind | APE1 inh | G9a inh | Pol eta inh | BLM inh | Pol iota inh
- N#Cc1cccc(Nc2ncnc3c2cnn3-c2cccc(Cl)c2)c1
  -2%[60.1 µM] | 1% | -8% | · | 3%[59 µM] | -12% | -6% | -7%
- CCOC(=O)c1c(C)sc(Sc2ccc(Cl)cc2[N+](=O)[O-])c1OC
  -12% | 30% | -23% | 13% | ? | -5% | -9% | 9%
- Oc1c(C(c2ccccc2)N2CCN(c3cccc(Cl)c3)CC2)sc2nc(-c3ccco3)nn12 (stereo unspecified)
  -8%[60.1 µM] | 2% | -15% | · | ? | -9% | -5% | -24%
- O=C(COc1ccccc1)Nc1nnc(-c2ccc(Cl)cc2)o1
  -8% | ? | -4% | 9% | -5% | -7% | -10% | -1%
- COc1nccnc1NS(=O)(=O)c1ccc(N=Cc2c(C)[nH]n(-c3ccc(Cl)cc3)c2=O)cc1
  · | -23% | -12% | 1% | 25µM* | · | 5% | ·
- O=C(CSc1nccn1Cc1ccccc1)NCc1ccccc1Cl
  2%[60.1 µM] | 0% | ? | · | -21%[59 µM] | -8% | -4% | -8%
- CCOC(=O)N1CCC(=NNc2ccnc3cc(Cl)ccc23)CC1
  -4% | 14% | -5% | 12% | 35µM* | -18% | 0% | 78%[activator]

A portion of the library; rates above refer to the full screens.
